# H5N1 CPE = MDCK cell protection from H5N1 avian flu | cytopathic effect, luminescence, 72 h; hits give high values; no value below 0 was filed and about half of the inactive calls have no number; reference of the scale not given here | inhibition, % at 50 µM | hit rate 0.07% among 96,000; in the data active = inhibition above about 25%
# * marks the source's active call; other numbers are inactive results; i = inactive.
SMILES,H5N1 CPE
O=C(c1ccco1)c1cn(CC(=O)N2CCCCC2)c2ccccc12,6.5
O=c1cc(NC2CCCCC2)c2ccccc2o1,i
CCOC(=O)CSc1nnc(-c2cccc(Br)c2)o1,0.6
COC(=O)CNC(=O)COC(=O)c1cc(F)c(F)cc1Cl,0.0
O=C(Cc1cccs1)NCc1ccccc1,0.4
O=C(CN1C(=O)c2ccccc2S1(=O)=O)NC1CCCC1,i
O=C(Cn1cccc1C(=O)c1ccccc1)NCc1ccccc1,i
CCC(=O)Nc1ccc2nc(C)n(CC(=O)Nc3ccccc3)c(=O)c2c1,i
CC(C)NC(=O)c1cnc(Sc2ncc(C(F)(F)F)cc2Cl)n1C,i
O=C(c1cc(=O)[nH]c2ccc(Br)cc12)N1CCC2(CC1)OCCO2,i
O=C(CCCOc1ccccc1)NCc1ccco1,0.5
CS(=O)(=O)Nc1ccc(C(=O)Nc2ccccc2C(=O)N2CCCC2)cc1,0.7
Cn1c(CN2CCCCC2)nc2cc(NC(=O)c3ccccc3Cl)ccc21,i
COc1ccccc1N1CCN(C(=O)c2cc(-c3ccc4c(c3)OCO4)on2)CC1,i
Nc1nc2nc(-c3ccc(Cl)cc3)cc(C(F)(F)F)n2n1,0.4
CC(C)(C)C(=O)c1sc(Nc2ccccc2)nc1N,18
CCCCCCc1nc2c(=O)[nH]c3ccccc3c2o1,i
CCOC(=O)C(Cc1ccccc1)NS(=O)(=O)c1ccc(NC(C)=O)cc1 (stereo not drawn),i
Cc1ccc(OCC(=O)O/N=C(\N)Cc2ccc(Cl)cc2)cc1,i
CCC(=O)N1CCc2cc(Br)cc(S(=O)(=O)NCCN3CCCCC3CC)c21 (stereo not drawn),0.5
COc1ccc(OC)c(NC(=O)C2CCN(S(=O)(=O)c3c(C)noc3C)CC2)c1,i
O=C(c1ccco1)N1CCN(C(=O)c2nn3cccnc3c2Cl)CC1,i
COCCNC(=O)CSc1nc2cc(OC)c(OC)cc2c(=O)n1Cc1ccco1,0.1
COc1ccc(-c2nnc(NC(=O)c3ccc(S(=O)(=O)N4COCC4(C)C)cc3)o2)cc1,i
CCCCOc1ccc(-c2nnc(-c3ccncc3)o2)cc1,i
CC(=O)c1cc(C#N)c(SCC(=O)O)nc1C,i
Cc1nn(C(=O)c2cccs2)c(C)c1CN1C(=O)c2ccccc2C1=O,i
CCNc1nc(SCC(=O)OC)nc(N2CCOCC2)n1,i
Cn1c(SCC(=O)NC(=O)NCc2ccco2)nnc1C(F)(F)F,i
O=C(C1CCCN1S(=O)(=O)c1ccc(Cl)c(Cl)c1)N1CCCCC1 (stereo not drawn),2.4
CS(=O)(=O)N(CC(=O)NCCSCc1cccc(Cl)c1)c1ccc2c(c1)OCO2,i
O=C(NCCCN=C1NS(=O)(=O)c2ccccc21)c1ccncc1,0.1
Cc1cc(C2C(C#N)=C(N)SC(N)=C2C#N)c(C)s1,0.2
COc1ccc(S(=O)(=O)N(CC(=O)NCC2CCCO2)c2ccccc2)cc1OC (stereo not drawn),1.2
CCn1c(SCC(=O)N/N=C/c2ccc(C)o2)nnc1-c1ccccc1,1.2
Cc1cccc(CN2CCN(C(=O)c3ccccc3F)CC2)c1,i
N/C(=N\OC(=O)C12CC3CC(CC(C3)C1)C2)c1cccnc1,0.7
COC(=O)CCC(=O)Nc1ccccc1C(N)=O,i
CCOC(=O)c1nn(-c2ccc(C)cc2)c2nc(Nc3ccccc3)cc(=O)n12,i
CCN1C(=O)/C(=C\N2CCN(c3ccc(F)cc3)CC2)SC1=S,i
Cn1c(N)c(C(=O)c2cc(-c3ccccc3)nc3ccccc23)c(=O)n(C)c1=O,0.4
Cc1nn(Cc2ccccc2)c(C)c1NC(=O)c1cc(-c2cccs2)on1,i
Cc1cc(N2CCCCC2)n2nc(C)c(-c3ccccc3)c2n1,1.7
c1ccc2c(c1)[nH]c1c(N3CCCC3)ncnc12,0.4
CC1CCN(CCCNC(=O)c2ccc(CSCc3cccc(Cl)c3)o2)CC1,0.1
CSc1nnc(-c2ccccc2)o1,7.0
O/N=C(\c1ccc(Cl)cc1)c1ncc(C(F)(F)F)cc1Cl,i
Cn1c(=O)c2c(nc(NCCCO)n2Cc2cccc(C(F)(F)F)c2)n(C)c1=O,1.4
CCn1c(SCC(N)=O)nnc1-c1ccc2[nH]c(C)c(C)c2c1,0.9
Cc1ccc(Cn2cccc2C2=NC(C)CO2)cc1 (stereo not drawn),i
COc1cccc(N(C(=O)CNC(=O)c2ccco2)C(C(=O)NC2CCCC2)c2ccncc2)c1 (stereo not drawn),2.5
CC(=O)c1cccc(NC(=O)c2ccc(N(Cc3ccccc3)S(C)(=O)=O)cc2)c1,i
Cc1cccc(N(C)C(=O)c2cc3cc4ccc(C)cc4nc3o2)c1,1.7
CCc1nnc(SCC(=O)Nc2ccccc2)nc1CC,i
O=C(Nc1nnc(SCC(=O)N2CCCCC2)s1)c1cccs1,0.6
Cc1ccc(-c2noc(CN(C(=O)C34CC5CC(CC(C5)C3)C4)C(C)C)n2)cc1,i
Cc1nc2c3ccccc3n(CCN3CCCCC3)c2s1,3.3
COC(=O)c1nnn(CC(=O)Nc2cccc(Cl)c2C)c1C(=O)OC,0.9
Nc1nc(CN2CCN(Cc3ccccc3)CC2)nc(Nc2ccccc2)n1,i
Cc1nn(Cc2ccccc2Cl)c(Cl)c1/C=C/C(=O)OCC(=O)NC(N)=O,i
# (next part)
SMILES,H5N1 CPE
O=C(c1ccccc1)N1CC(COc2ccccc2)OC(c2cccnc2)O1 (stereo not drawn),0.6
CC(=O)Oc1c2occc2cc2ccc(=O)oc12,1.1
COc1ccccc1-c1c(C)c(C)nc(N)c1C#N,i
CC1(c2ccccc2)NC(=S)N2C1NC(=S)N2c1ccccc1 (stereo not drawn),0.4
Cc1[nH]nc(Nc2ccccc2)c1[N+](=O)[O-],0.6
Cc1ccc(Cl)cc1Nc1nc(-c2sc(NC(=O)c3ccccc3)nc2C)cs1,i
COC(=O)CSc1nc2sc(C)c(C)c2c(=O)n1C,1.1
O=C(Nc1cnccn1)c1cccc(C(F)(F)F)c1,i
CCOC(=O)c1cc2c(ccn2C)n1Cc1ccccc1C,i
c1ccc(Nc2cc(-c3ccccc3)nc3ncnn23)cc1,1.6
CCOc1cc2[nH]c(=O)n(CCc3ccc(OC)c(OC)c3)c(=O)c2cc1OCC,i
CCOC(=O)C1=C(C)Nc2ncnn2C1c1cc(Br)ccc1F (stereo not drawn),1.6
O=C(NCCCN1CCCC1=O)c1ccc2c(c1)NC(=O)C(N1CCOCC1)S2 (stereo not drawn),0.6
COc1ccccc1N1CCN(C(=O)CCn2c(=O)[nH]c3ccccc3c2=O)CC1,0.1
COc1cccc(NC2=NC3(CCCCC3)N=C(N)N2)c1,i
COC(=O)CSc1nc(N2CCCCC2)c2c(c1C#N)CCCC2,0.4
Cc1cccc(NC(=S)N(CCc2nc3cc(C)c(C)cc3[nH]2)Cc2cccnc2)c1,i
Cc1cccc(OCC(=O)Nc2ccccc2N2CCCCC2)c1,5.0
COc1ccc(-c2nc(C#N)c(NCCc3ccccc3)o2)cc1,i
Cc1nn(CC(=O)Nc2ccc(Cl)cn2)c(C)c1[N+](=O)[O-],2.1
CCOc1ccccc1-c1nc(-c2ccncc2)no1,i
O=C(c1ccc(N2C(=O)C3CC=C(Cl)CC3C2=O)cc1)N1CCCCC1 (stereo not drawn),1.1
Cc1ccc(S(=O)(=O)N2CCN(C(=O)c3cc4c(C)nn(-c5ccccc5)c4s3)CC2)cc1,0.1
COc1ccc(CCn2c(N3CCN(Cc4ccccc4)CC3)nc3c2c(=O)[nH]c(=O)n3C)cc1,0.2
Cc1cc(N)n2ncc(-c3ccccc3)c2n1,i
Cc1ccc(N2C(=O)C3C(C2=O)C2C=CC3C23CC3)cc1 (stereo not drawn),i
CC(c1nnc(SCC(=O)Nc2sccc2C#N)n1-c1ccc(Cl)cc1)N(C)C (stereo not drawn),0.2
O=C(Nc1ccc(Cl)cc1)N1CCSCC1,1.3
COc1ccc(C(=O)N/C(=C\c2cccs2)c2nc3ccccc3[nH]2)cc1OC,0.7
CCOC(=O)c1c(NC(=O)c2cccc(N3C(=O)CCC3=O)c2)sc(C)c1C,i
O=C1/C(=C\c2ccco2)SC(=S)N1Cc1ccccc1,0.5
Cc1ccccc1C(=O)Nc1ccccc1C(=O)NCc1ccccc1,i
CCC(C)n1nnc2c(=O)oc3ccccc3c21 (stereo not drawn),0.2
Cc1ccc2oc(-c3ccc(NC(=O)c4ccc5c(c4)OCO5)cc3)nc2c1,i
COc1ccc(S(=O)(=O)Nc2nnc(C(C)C)s2)cc1,i
CCOc1ccc(N(CC(=O)NC2CCCC(C)C2C)S(=O)(=O)c2c(C)noc2C)cc1 (stereo not drawn),i

# An excerpt of the results above, as a working copy:
SMILES,H5N1 CPE
Cc1cc(N)n2ncc(-c3ccccc3)c2n1,i
Cc1ccc(N2C(=O)C3C(C2=O)C2C=CC3C23CC3)cc1 (stereo not drawn),i
CC(c1nnc(SCC(=O)Nc2sccc2C#N)n1-c1ccc(Cl)cc1)N(C)C (stereo not drawn),0.2
O=C(Nc1ccc(Cl)cc1)N1CCSCC1,1.3
COc1ccc(C(=O)N/C(=C\c2cccs2)c2nc3ccccc3[nH]2)cc1OC,0.7
CCOC(=O)c1c(NC(=O)c2cccc(N3C(=O)CCC3=O)c2)sc(C)c1C,i
O=C1/C(=C\c2ccco2)SC(=S)N1Cc1ccccc1,0.5
Cc1ccccc1C(=O)Nc1ccccc1C(=O)NCc1ccccc1,i

# Following part
SMILES,H5N1 CPE
O=C(NCN1CCN(c2ccccn2)CC1)c1cnccn1,0.7
CCOC(=O)COc1ccc2cc(C(=O)OCC)c(=O)oc2c1,i
COC(CNC(=O)C1CC(=O)N(CCc2ccccc2)C1)OC (stereo not drawn),0.9
CCN(CC)S(=O)(=O)c1ccc(OCC(=O)NCc2ccccc2)cc1,0.8
CC1(C)CC(=O)c2sc(NC(=O)c3ccc4ncsc4c3)nc2C1,0.5
Cc1cc[n+](CC(=O)c2cccs2)cc1,i
COc1ccccc1CNC(=O)C/C(C)=N/NC(=O)Cc1ccccc1,0.3
COc1ccc(OC)c(-n2nnnc2SCC(=O)Nc2ccc(C(=O)N3CCCCC3)cc2)c1,i
CSC1=NCCN1C(=O)C(C)Oc1ccccc1 (stereo not drawn),1.5
Cc1ccc(C(=O)CSc2ncn[nH]2)cc1,i
O=C1CSC(c2cn(-c3ccccc3)nc2-c2cccs2)N1CC1CCCO1 (stereo not drawn),1.5
Cc1nc(N)sc1-c1nnc(SCC(=O)Nc2nccs2)n1C,i

# Laid out differently: results already given.
Compound	H5N1 CPE
O=C(c1ccccc1)N1CC(COc2ccccc2)OC(c2cccnc2)O1 (stereo not drawn)	0.6
CCC(=O)N1CCc2cc(Br)cc(S(=O)(=O)NCCN3CCCCC3CC)c21 (stereo not drawn)	0.5
COC(CNC(=O)C1CC(=O)N(CCc2ccccc2)C1)OC (stereo not drawn)	0.9
O=C(c1ccco1)c1cn(CC(=O)N2CCCCC2)c2ccccc12	6.5
CC(=O)c1cc(C#N)c(SCC(=O)O)nc1C	i
Cn1c(CN2CCCCC2)nc2cc(NC(=O)c3ccccc3Cl)ccc21	i

# Next compounds.
SMILES,H5N1 CPE
O=C(CN1C(=O)C2C3C=CC(C3)C2C1=O)Nc1ccc2c(c1)OCCO2 (stereo not drawn),1.4
CCOC(=O)CNC(=O)CN1C(=O)CCS(=O)(=O)c2ccccc21,i
CC(C)(C)C(=O)CC1(O)C(=O)N(Cc2ccccc2)c2ccccc21 (stereo not drawn),0.1
O=C(Nc1cc(S(=O)(=O)N2CCCC2)ccc1Cl)C1=COCCO1,0.6
COc1cccc2c(=O)n(CC(=O)N3CCc4ccccc43)ccc12,1.5
COc1cc(NC(=O)c2ccccc2Cl)c(OC)cc1NC(=O)CN1CCOCC1,0.7
COc1cc(CNC2CCCC2)cc(OC)c1,i
CC(=O)Nc1ccc(NC(=O)CCCCCN2C(=O)c3ccccc3C2=O)cc1,i
COc1ccc2c(c1)c(=O)oc1cc(OCC(=O)N3CCCC(C)C3)ccc12 (stereo not drawn),0.6
COc1ccc(-c2ccc(=O)n(CC(=O)NCc3ccco3)n2)cc1,1.7
COc1ccc(S(=O)(=O)NCc2csc(C)n2)cc1,2.0
O=C(N/N=C/c1cn(-c2ccccc2)nc1-c1ccc(F)cc1)c1ccc2c(c1)OCO2,1.6
Nc1cccnc1Sc1cc(Cl)c(Cl)cc1Cl,0.2
CCOc1ccc(OCCOc2ncnc3ccccc23)cc1,i
CC1=C(C(=O)NCc2ccccc2)C(c2ccc(C)o2)n2ncnc2N1 (stereo not drawn),i
Cc1ccc2cc3c(NC(=O)C4CCCO4)nn(CC(C)C)c3nc2c1 (stereo not drawn),0.2
C=CCc1ccccc1OCC(=O)OCCNC(=O)c1cccnc1,0.4
CCC1(C)Cc2c(sc3nc(NN)n(C)c(=O)c23)CO1 (stereo not drawn),i
CCN(CC)c1ccc(NC(=O)c2ccco2)cc1,0.3
CC1CN(C(=O)c2scc3c2OCCO3)CC(C)O1 (stereo not drawn),0.0
CCCn1c(SCC(=O)NCC2CCCO2)nc2c1c(=O)n(C)c(=O)n2C (stereo not drawn),0.8
NC(=O)C1CCN(c2nc(C3CC3)nc3c2nnn3Cc2ccccc2Cl)CC1,i
CCN1CC2=C(OC(N)=C(C#N)C2c2cccs2)/C(=C/c2cccs2)C1 (stereo not drawn),1.8
COCc1cc(CN2CCN(C)CC2)c(O)c2ncccc12,0.1
COc1cccc2c(=O)c3c(cnn3C)n(C)c12,0.8
O=C(c1cc2sccc2n1Cc1ccccc1)N1CCc2ccccc21,i
Cc1cc(C)n2nc(SCC(=O)N(C)Cc3ccccc3)nc2n1,1.3
O=c1[nH]c2ccccc2nc1N1CCOCC1,0.3
O=C(CCNc1cc(Cl)cc(Cl)c1)c1ccco1,i
COc1ccc(N2C(=O)C3CCCN3C2=O)cc1 (stereo not drawn),0.1

# Grouped by structure: the compounds so far containing a cyano group (seven)
SMILES,H5N1 CPE
CC(=O)c1cc(C#N)c(SCC(=O)O)nc1C,i
Cc1cc(C2C(C#N)=C(N)SC(N)=C2C#N)c(C)s1,0.2
COc1ccccc1-c1c(C)c(C)nc(N)c1C#N,i
COC(=O)CSc1nc(N2CCCCC2)c2c(c1C#N)CCCC2,0.4
COc1ccc(-c2nc(C#N)c(NCCc3ccccc3)o2)cc1,i
CC(c1nnc(SCC(=O)Nc2sccc2C#N)n1-c1ccc(Cl)cc1)N(C)C (stereo not drawn),0.2
CCN1CC2=C(OC(N)=C(C#N)C2c2cccs2)/C(=C/c2cccs2)C1 (stereo not drawn),1.8

# Assay outcomes (PubChem)

# The list is partial; count on the stated rates, not on these rows.
